FGF22 binding: binders of recombinant human FGF22 by thermal shift | SYPRO orange fluorescence; percent of sucrose octasulfate shift, DMSO zero | AID 651658 | 340,000 compounds, 1.5% hits | calls only at 9.99 µM | Q9HCT0;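 active means melting point raised past a set limit in the mean and every replicate; three in four hits are not shown here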
Target sequence (Q9HCT0 whole entry, looked up): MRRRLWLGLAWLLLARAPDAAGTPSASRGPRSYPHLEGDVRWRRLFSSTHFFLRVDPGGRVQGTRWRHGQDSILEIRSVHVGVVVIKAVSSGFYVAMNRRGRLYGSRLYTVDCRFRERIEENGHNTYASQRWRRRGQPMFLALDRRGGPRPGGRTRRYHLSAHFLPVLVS
MLL AF4-AF9 inh: MLL-AF4/AF9 protein interaction inhibition; 350,000 compounds, 0.47% hits; AlphaScreen, biotin-AF4 peptide binding to FLAG-AF9; inhibition, % at 10 µM;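 active means every replicate reaching a set inhibition limit, whatever the replicate mean, cut at about 25% in these data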;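 further: 0% = plate neutral control median and 100% = total signal loss; the record names both 10 and 1 µM as test concentration; the first replicate is given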
Target sequence (P42568 whole entry, looked up): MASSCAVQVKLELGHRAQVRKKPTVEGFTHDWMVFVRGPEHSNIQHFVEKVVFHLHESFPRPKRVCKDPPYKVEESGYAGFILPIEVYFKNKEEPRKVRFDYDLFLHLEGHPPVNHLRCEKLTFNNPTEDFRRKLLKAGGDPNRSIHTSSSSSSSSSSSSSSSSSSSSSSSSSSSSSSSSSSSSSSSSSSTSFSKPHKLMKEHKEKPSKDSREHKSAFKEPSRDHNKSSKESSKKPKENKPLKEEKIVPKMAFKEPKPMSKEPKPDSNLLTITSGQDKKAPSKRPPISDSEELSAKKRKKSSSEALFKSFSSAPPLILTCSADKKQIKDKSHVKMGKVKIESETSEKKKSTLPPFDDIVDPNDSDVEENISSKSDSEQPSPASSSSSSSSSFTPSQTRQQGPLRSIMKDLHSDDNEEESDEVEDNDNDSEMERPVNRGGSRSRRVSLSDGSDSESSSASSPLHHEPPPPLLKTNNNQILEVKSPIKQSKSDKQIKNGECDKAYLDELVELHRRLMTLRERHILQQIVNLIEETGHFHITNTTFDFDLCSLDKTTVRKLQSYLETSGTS
Active calls of the source: *; i = inactive. This is a subset; rates above refer to the full screens.

SMILES	FGF22 binding	MLL AF4-AF9 inh
C[C@H]1CN([C@@H](C)CO)C(=O)c2cccc(NS(=O)(=O)c3ccccc3)c2O[C@H]1CN(C)C(=O)Nc1cccc2ccccc12	i	-0.3
Cc1noc(C)c1S(=O)(=O)Nc1ccc2c(c1)C(=O)N([C@H](C)CO)C[C@@H](C)[C@@H](CN(C)C(=O)NC1CCCCC1)OCCCC[C@@H](C)O2	i	-4.8
CC(C)NC(=O)Nc1ccc2c(c1)C(=O)N([C@@H](C)CO)C[C@@H](C)[C@@H](CN(C)CC1CCCCC1)OCCCC[C@H](C)O2	i	1.6
N#C[C@H]1[C@H](c2ccc(-c3cccnc3)cc2)[C@H](CO)N1C(=O)C1CC1	i	-1.7
O=C(C[C@@H]1CC[C@@H]2[C@H](COC[C@H](O)CN2C(=O)c2cccnc2)O1)NCc1ccc(-c2ccccc2)cc1	i	-2.6
Cc1noc(C)c1NC(=O)Nc1ccc2c(c1)CC(=O)N([C@H](C)CO)C[C@@H](C)[C@H](CN(C)Cc1ccncc1)O2	i	-1.2
COc1cccc(S(=O)(=O)Nc2ccc3c(c2)C(=O)N(C)C[C@@H](OC)[C@@H](C)CN(C(=O)Cc2cccnc2)[C@@H](C)CO3)c1	i	5.1
Cc1noc(C)c1S(=O)(=O)Nc1ccc2c(c1)CC(=O)N([C@H](C)CO)C[C@@H](C)[C@@H](CN(C)Cc1ccncc1)O2	i	-3.3
Cc1ccc(S(=O)(=O)Nc2ccc3c(c2)C(=O)N([C@H](C)CO)C[C@H](C)[C@H](CN(C)C(=O)NC2CCCCC2)OCCCC[C@H](C)O3)cc1	i	-0.8
COc1ccc(NC(=O)Nc2ccc3c(c2)C(=O)N([C@H](C)CO)C[C@@H](C)[C@H](CN(C)Cc2ccc(C(=O)O)cc2)O3)cc1	i	-2.7
CNC[C@H]1Oc2ccc(NC(=O)CCC(F)(F)F)cc2CC(=O)N([C@@H](C)CO)C[C@@H]1C	i	-12
COCC(=O)Nc1ccc2c(c1)[C@@H]1C[C@@H](CC(=O)N3CCOCC3)O[C@H](CO)[C@@H]1O2	i	-0.3
CCNC(=O)C[C@@H]1CC[C@@H]2[C@@H](COc3ccc(NC(=O)Nc4ccccc4OC)cc3C(=O)N2C)O1	i	0.1
CCc1cnc(N2[C@H](CO)[C@@H](c3ccc(-c4cccc(F)c4)cc3)[C@@H]2C#N)s1	i	-12
COc1ccc(S(=O)(=O)Nc2ccc3c(c2)C(=O)N([C@@H](C)CO)C[C@@H](C)[C@H](CN(C)S(=O)(=O)c2ccc(C)cc2)OCCCC[C@H](C)O3)cc1	i	-4.4
C[C@H](CO)N1C[C@H](C)[C@@H](CN(C)S(=O)(=O)c2cccs2)Oc2ccc(NC(=O)CCCCCC(=O)Nc3ccccc3N)cc2C1=O	i	-3.8
O=C(CC1CC1)N1[C@@H](CO)[C@@H](c2ccccc2)C12CN(Cc1cc(F)ccc1F)C2	i	-2.4
Cc1noc(C)c1S(=O)(=O)N(C)C[C@@H]1Oc2c(NC(=O)C3CCCCC3)cccc2C(=O)N([C@@H](C)CO)C[C@@H]1C	i	-3.1
Cc1noc(C)c1S(=O)(=O)Nc1cccc2c1O[C@H](CN(C)C(=O)NC1CCCCC1)[C@H](C)CN([C@H](C)CO)C2=O	i	-1.8
COCC(=O)Nc1ccc2c(c1)C(=O)N(C)C[C@@H](OC)[C@@H](C)CN(CCC(F)(F)F)[C@@H](C)CO2	i	1.4
OC[C@@H]1[C@@H](c2ccc(C#CC3CC3)cc2)[C@@H]2CN(CCC(F)(F)F)CCCCN12	i	10
CC(C)NC(=O)N(C)C[C@H]1Oc2ccc(NC(=O)Nc3ccc4c(c3)OCO4)cc2C(=O)N([C@@H](C)CO)C[C@H]1C	i	-0.5
C[C@@H]1CCCCO[C@@H](CN(C)CC2CCCCC2)[C@@H](C)CN([C@@H](C)CO)C(=O)c2cc(NC(=O)Nc3ccc(C(F)(F)F)cc3)ccc2O1	i	3.6
CCCNC(=O)N1C[C@H](C)[C@H](OC)CN(C)C(=O)c2cc(NS(=O)(=O)CC(F)(F)F)ccc2OC[C@@H]1C	i	-2.0
Cc1noc(C)c1NC(=O)Nc1ccc2c(c1)C(=O)N([C@H](C)CO)C[C@H](C)[C@H](CN(C)S(C)(=O)=O)OCCCC[C@H](C)O2	i	-2.8
C[C@@H]1CN([C@H](C)CO)C(=O)c2cc(C#CC3CCCCC3)cnc2O[C@@H]1CN(C)C(=O)Nc1ccccc1	i	4.5
C[C@@H]1CCCCO[C@@H](CN(C)C(=O)c2ccccc2)[C@@H](C)CN([C@H](C)CO)C(=O)c2cc(NC(=O)Nc3cccc4ccccc34)ccc2O1	i	-2.0
CNC[C@H]1Oc2cc(-c3ccc(C#N)cc3)ccc2S(=O)(=O)N([C@H](C)CO)C[C@@H]1C	i	3.2
Cc1noc(C)c1S(=O)(=O)N(C)C[C@H]1Oc2c(NC(=O)c3ccc(-c4nccs4)cc3)cccc2C(=O)N([C@H](C)CO)C[C@H]1C	i	4.7
C[C@@H](NC(=O)C[C@H]1CC[C@@H]2[C@H](COC[C@H](O)CN2C(=O)Nc2cc(Cl)cc(Cl)c2)O1)c1ccccc1	i	0.0
CC(C)NC(=O)N(C)C[C@@H]1Oc2c(NC(=O)Nc3cccc4ccccc34)cccc2C(=O)N([C@H](C)CO)C[C@H]1C	i	-1.6
CNC[C@H]1Oc2ccc(NC(=O)C3CC3)cc2C(=O)N([C@@H](C)CO)C[C@@H]1C	i	0.6
C[C@@H]1CN([C@H](C)CO)C(=O)c2cc(NC(=O)Nc3ccccc3)ccc2O[C@@H]1CN(C)S(=O)(=O)c1cn(C)cn1	i	-0.8
C[C@@H]1CCCCO[C@@H](CN(C)CC2CC2)[C@H](C)CN([C@@H](C)CO)C(=O)c2cc(NC(=O)NC3CCCCC3)ccc2O1	i	4.1
CC(C)NC(=O)N(C)C[C@H]1Oc2ccc(NC(=O)Nc3ccc4c(c3)OCO4)cc2CC(=O)N([C@@H](C)CO)C[C@H]1C	i	-2.1
COc1ccccc1NC(=O)N1CCCCN2[C@@H](CO)[C@H](c3ccc(C#CC4CCCC4)cc3)[C@@H]2C1	i	13

Record cards, as listed above. Values in the order: FGF22 binding	MLL AF4-AF9 inh
`CNC[C@H]1Oc2ccc(NC(=O)C3CC3)cc2C(=O)N([C@@H](C)CO)C[C@@H]1C` in the list: i	0.6
`COCC(=O)Nc1ccc2c(c1)C(=O)N(C)C[C@@H](OC)[C@@H](C)CN(CCC(F)(F)F)[C@@H](C)CO2` in the list: i	1.4

Next section:
SMILES	FGF22 binding	MLL AF4-AF9 inh
Cc1ccccc1-c1cnc2c(c1)C(=O)N([C@H](C)CO)C[C@H](C)[C@@H](CN(C)CC1CCOCC1)O2	i	0.4
Cc1ccccc1-c1ccc2c(c1)O[C@@H](CN(C)C(=O)Nc1ccc(C(F)(F)F)cc1)[C@H](C)CN([C@H](C)CO)S2(=O)=O	i	1.4
N#C[C@H]1[C@@H](c2ccc(C#CC3CC3)cc2)[C@@H](CO)N1C(=O)Nc1ccc(F)cc1	i	-1.0
COC(=O)C[C@H]1CC[C@@H]2[C@@H](COc3ccc(NC(=O)c4cccc(F)c4)cc3C(=O)N2C)O1	i	-0.4
O=S(=O)(c1ccccc1)N1CCCCN2[C@H](CO)[C@@H](c3ccc(-c4ccccc4)cc3)[C@@H]2C1	i	-7.5
CO[C@@H]1CC[C@@H]2CCN(C)C(=O)[C@@H](C)CN(C)C(=O)c3cccc(C#N)c3OC[C@H]1O2	i	-4.9
C[C@H](CO)N1C[C@H](C)[C@@H](CN(C)C(=O)CCCN(C)C)OCCCC[C@H](C)Oc2ccc(NC(=O)C3CCCCC3)cc2C1=O	i	-2.9
COc1ccc2c3c(n(C)c2c1)[C@H](CO)N(C(=O)CC1CC1)CC31CN(Cc2ccccc2)C1	i	19
Cc1ccc(S(=O)(=O)N(C)C[C@H]2OCCCC[C@@H](C)Oc3ccc(NS(=O)(=O)c4ccccc4)cc3C(=O)N([C@@H](C)CO)C[C@H]2C)cc1	i	1.5
C[C@@H]1CN([C@H](C)CO)C(=O)c2cc(-c3ccccc3)cnc2O[C@@H]1CN(C)C(=O)Nc1ccccc1	i	-2.7
C[C@H](CO)N1C[C@H](C)[C@@H](CN(C)Cc2ccc(C(F)(F)F)cc2)Oc2ccc(NC(=O)CCCCCC(=O)Nc3ccccc3N)cc2CC1=O	i	0.9
C[C@H](CO)N1C[C@H](C)[C@H](CN(C)C)Oc2cc(-c3ccc(F)cc3)ccc2S1(=O)=O	i	0.2
CC=Cc1ccc2n(c1=O)C[C@H]1[C@H](CO)[C@@H](C(=O)Nc3ccc(-c4ccccc4)cc3)[C@@H]2N1C (mixture of isomers)	i	6.9
C[C@@H]1CN([C@@H](C)CO)C(=O)CCCn2cc(nn2)CO[C@H]1CN(C)Cc1ccc(C(=O)O)cc1	i	-0.6
COc1ccccc1NC(=O)N(C)C[C@H]1Oc2cc(Br)ccc2S(=O)(=O)N([C@@H](C)CO)C[C@H]1C	i	0.3
O=C(C[C@H]1CC[C@@H]2[C@H](COC[C@H](O)CN2Cc2ccc(F)cc2)O1)NCc1ccncn1	i	-5.5
O=C(C[C@H]1C=C[C@H](NC(=O)c2ccncc2)[C@H](CO)O1)NCC1CC1	i	-1.5
O=C(NCC[C@H]1CC[C@@H](NC(=O)c2cccnc2)[C@H](CO)O1)Nc1ccc(C(F)(F)F)cc1	i	13
O=C(C[C@@H]1CC[C@H]2[C@@H](COC[C@@H](O)CN2C(=O)Nc2ccccc2)O1)NCCc1ccncc1	i	0.4
CCCNC(=O)N1[C@@H](CO)[C@@H](c2ccccc2)[C@@H]1CNC(=O)c1ccccc1	i	-2.1
Cc1noc(C)c1NC(=O)N[C@H]1CC[C@@H](CC(=O)NCc2ccc(Cl)c(Cl)c2)O[C@@H]1CO	i	0.7
O=C(C[C@@H]1C=C[C@@H](NS(=O)(=O)c2ccccc2)[C@@H](CO)O1)N1CCN(c2ccccc2)CC1	i	-3.9
C[C@H](CO)N1C[C@H](C)[C@H](CN(C)Cc2ccncc2)Oc2ccc(NS(=O)(=O)c3ccc(F)cc3)cc2CC1=O	i	-1.6
CC(C)NC(=O)Nc1ccc2c(c1)C(=O)N([C@H](C)CO)C[C@H](C)[C@H](CN(C)C(=O)Nc1ccc3c(c1)OCO3)OCCCC[C@@H](C)O2	i	-2.3
C[C@@H](NC(=O)C[C@H]1C[C@H]2c3cc(NC(=O)C4CCOCC4)ccc3O[C@H]2[C@H](CO)O1)c1ccccc1	i	-1.6
C[C@H]1CN([C@@H](C)CO)C(=O)c2cccc(NC(=O)c3nc4ccccc4s3)c2O[C@@H]1CN(C)C(=O)Nc1ccc(F)cc1	i	-0.9
C[C@@H]1CN([C@H](C)CO)C(=O)c2c(c3ccccc3n2C)-c2ccccc2CO[C@H]1CN(C)C	i	-2.9
C[C@H](CO)N1C[C@H](C)[C@H](CN(C)CC2CCOCC2)Oc2cc(C#C[C@@H](C)O)ccc2S1(=O)=O	i	-2.4
CO[C@H]1CN(C)C(=O)c2ccc(NS(C)(=O)=O)cc2OC[C@H](C)N(C(=O)C2CCCC2)C[C@H]1C	i	-0.2
COc1ccc(S(=O)(=O)N(C)C[C@H]2Oc3cc(-c4ccccc4OC)ccc3S(=O)(=O)N([C@H](C)CO)C[C@@H]2C)cc1	i	1.5
O=C(CC1CC1)N1[C@H](CO)[C@@H]2c3ccccc3N(S(=O)(=O)c3ccc(F)cc3)C[C@@H]21	i	-3.6
CN1c2ccc(-c3ccccc3F)cc2[C@H]2[C@H](CCN2C(=O)CN2CCOCC2)[C@@H]1CO	i	-1.1
COc1cccc(CN2[C@H](CO)[C@@H](c3ccccc3)C23CN(C(=O)C2CC2)C3)c1	i	-16
COc1ccc2c3c([nH]c2c1)[C@H](CO)N(C(=O)Nc1ccc(F)cc1)CC31CN(Cc2cc(F)ccc2F)C1	i	5.4
CC(C)NC(=O)Nc1cccc2c1O[C@@H](CN(C)S(C)(=O)=O)[C@@H](C)CN([C@H](C)CO)C2=O	i	-1.4
COc1ccccc1CN1C[C@H](C)[C@H](OC)CN(C)C(=O)c2cc(NC(C)=O)ccc2OC[C@@H]1C	i	1.6

At a glance, seven of the compounds above:
SMILES	FGF22 binding	MLL AF4-AF9 inh
C[C@H]1CN([C@@H](C)CO)C(=O)c2cccc(NS(=O)(=O)c3ccccc3)c2O[C@H]1CN(C)C(=O)Nc1cccc2ccccc12	i	-0.3
Cc1noc(C)c1S(=O)(=O)Nc1ccc2c(c1)C(=O)N([C@H](C)CO)C[C@@H](C)[C@@H](CN(C)C(=O)NC1CCCCC1)OCCCC[C@@H](C)O2	i	-4.8
CC(C)NC(=O)Nc1ccc2c(c1)C(=O)N([C@@H](C)CO)C[C@@H](C)[C@@H](CN(C)CC1CCCCC1)OCCCC[C@H](C)O2	i	1.6
N#C[C@H]1[C@H](c2ccc(-c3cccnc3)cc2)[C@H](CO)N1C(=O)C1CC1	i	-1.7
O=C(C[C@@H]1CC[C@@H]2[C@H](COC[C@H](O)CN2C(=O)c2cccnc2)O1)NCc1ccc(-c2ccccc2)cc1	i	-2.6
Cc1noc(C)c1NC(=O)Nc1ccc2c(c1)CC(=O)N([C@H](C)CO)C[C@@H](C)[C@H](CN(C)Cc1ccncc1)O2	i	-1.2
COc1cccc(S(=O)(=O)Nc2ccc3c(c2)C(=O)N(C)C[C@@H](OC)[C@@H](C)CN(C(=O)Cc2cccnc2)[C@@H](C)CO3)c1	i	5.1

(continued)
SMILES	FGF22 binding	MLL AF4-AF9 inh
C/C=C/c1ccc([C@@H]2[C@@H](CO)N3CCCCN(S(=O)(=O)c4ccc(F)cc4)C[C@@H]23)cc1	i	-2.2
C[C@@H]1CN([C@H](C)CO)C(=O)c2cc(NS(=O)(=O)c3cccs3)ccc2O[C@@H]1CN(C)S(=O)(=O)c1cn(C)cn1	i	-0.3
C/C=C/c1cnc2c(c1)C(=O)N([C@@H](C)CO)C[C@H](C)[C@H](CN(C)C(=O)Nc1ccc(OC)cc1)O2	i	-1.6
C[C@@H]1CN([C@@H](C)CO)C(=O)c2cccc(NC(=O)c3ccncc3)c2O[C@@H]1CN(C)Cc1ccc(C(F)(F)F)cc1	i	-2.6

Screening data from PubChem BioAssay.
